From PubChem BioAssay
Mtb hypoxia inh: PubChem AID 1159583; M. tuberculosis hypoxia-regulated fluorescent reporter, fluorescence; fluorescence inhibition, % (concentration not given with the values); 300,000 tested, 0.1% active;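 active = 35 to 45% if threefold the growth effect, above 45% if 1.5-fold the growth effect; inactive = the rest, general growth blockers included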;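 note: wells of about 50 µL received 100 nL stock; 0% = vehicle wells and 100% = reference inhibitor wells; whole bacteria with a GFP reporter of the hypoxia response; strong numbers were not always called active; many hits fall short of the cut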
Sa RN4220 lethal: growth inhibition of S. aureus RN4220, primary screen, OD600 | 16 h | inhibition, % (test concentration not listed) | 330,000 tested, 0.33% active;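 active = z-score of -3 or lower and OD600 up to 0.18 on both plates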;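 note: plate controls were untreated cells for no effect and reference antibiotic for full effect; stock transfer was 100 nL into about 80 µL; one replicate is shown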
ugtP null kill: growth inhibition of ugtP-null S. aureus, primary screen, RN4220 ugtP deletion, OD600. 16 h; some inactives read as strong as hits. 330,000 tested, 0.54% active. AID 1259309, 2017. growth inhibition, % (test concentration not listed);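 active = z-score under -3 and OD600 up to 0.15 on both plates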;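 note: plate controls were untreated wells for no effect and antibiotic for full effect; wells of about 80 µL received 100 nL stock; the first replicate is given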
BJeLR viability: MLPCN primary cell-based screen for lethality selective to Ras in HRASV12 cells. inhibition, % (test concentration not listed). BJeLR (HRASV12) viability, CellTiter-Glo ATP luminescence, 48 h; reference of the scale not given here. 300,000 tested, 0.17% active. AID 1554, 2009;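 active = replicate mean above 50%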;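 note: 50 nL library stock added to about 25 µL; numbers are from one replicate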
PrP UTR inh: inhibition of PrP 5' UTR reporter expression | cell-based PrP 5' UTR mRNA reporter, plate reader | inhibition, % (concentration not given with the values) | 340,000 tested, 0.35% active | AID 488862, 2010;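 active = every replicate at 50% or more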;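 note: 0 = median of the neutral control wells; tested in H4 reporter cells; numbers are from one replicate; inactives centre near -14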
Bead autofluor: counter-screen for toxin protease inhibitors: compound fluorescence; compound autofluorescence counterscreen, microsphere flow cytometry; stronger effect = higher value; fluorescence intensity (test concentration not listed); 360,000 tested, 3.1% active;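 active = at least 3 SD above the mean of all compounds, about 16000 in these data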;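 note: 100 nL of 1 mM stock went into each well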
Mtb hypoxia inh growth: recorded beside Mtb hypoxia inh, whose call it bears; growth inhibition, %; measured here: M. tuberculosis growth (absorbance);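 0% = vehicle and 100% = reference antibiotic; read after six days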
* marks the source's active call; other numbers are inactive results; x = not tested or not shown.

SMILES | Mtb hypoxia inh | Mtb hypoxia inh growth | Sa RN4220 lethal | ugtP null kill | BJeLR viability | PrP UTR inh | Bead autofluor
Cc1ccsc1CN(C)CC(=O)Nc1cccc(S(=O)(=O)N(C)c2ccccc2)c1 | -3 | -3 | 2.4 | -9 | x | -10 | 6598
COC(=O)Nc1ccc(OCC(=O)N2CCOCC2)cc1 | -3 | 3 | 4.0 | 1 | -8 | -8 | 2066
COc1cc(C=NNC(=O)c2cccnc2)ccc1OCC(=O)Nc1ccc(C)cc1 | -2 | 6 | -2.3 | -10 | x | x | x
COc1cccc(/C=C/C(=O)OCC(=O)c2c(N)n(C)c(=O)n(C)c2=O)c1 | 5 | 2 | 0.1 | -8 | x | -20 | 2885
COC(=O)CN=C1OC(=O)N2C(=O)C3=C4C(CC5C(=O)N(c6ccccc6)C(=O)C5C4[C@@]12Cc1ccccc1)C1C(=O)N(c2ccccc2)C(=O)C1C3C (stereo partly specified) | 1 | 4 | 6.0 | -1 | x | x | x
CCOC(=O)N1CCN(C(=O)COc2ccc(Cl)cc2)CC1 | 3 | 3 | 5.9 | 5 | 1 | -4 | 8271
O=C(NCCN1CCOCC1)c1ccc2c(c1)ncn2C1CCCCC1 | -8 | 11 | 6.3 | -3 | -5 | -19 | 2524
COc1cccc(CN(Cc2ccccc2F)S(=O)(=O)c2ccc(S(=O)(=O)NCc3ccccc3)cc2)c1 | 17 | 2 | 7.1 | -6 | -6 | -8 | 2416
C#CCOCCOCCOCCNc1nc(N2CCN(C(=O)CCCCCCCCCCNC(=O)C(CCC(=O)O)n3cc(CCCCCN)nn3)CC2)nc(N2CCN(C(=O)CCCCCCCCCCNC(=O)C(CCC(=O)O)n3cc(CCCCCN)nn3)CC2)n1 (stereo unspecified) | 6 | 9 | 3.2 | 2 | x | x | x
COc1cc2[nH]c(-c3ccc(C)cc3)cc(=O)c2cc1OC | 0 | 5 | 2.4 | -1 | 1 | -24 | 3798
COc1ccccc1-n1cc2c([N+](=O)[O-])cc([N+](=O)[O-])cc2n1 | 22 | 21 | -1.6 | -4 | 2 | -13 | 3691
CCCOc1cccc(NC(=O)c2c(-c3ccccc3)noc2C)c1 | x | x | -1.2 | 1 | 19 | -14 | 3814
CN(C)S(=O)(=O)Oc1ccc(C(=O)Nc2cccc(Cl)c2)cc1 | 13 | 0 | 0.2 | -6 | 4 | -71 | 2506
COc1ccc(C(=O)NC(=S)Nc2cc3oc4ccccc4c3cc2OC)cc1 | x | x | x | x | 2 | -28 | 2551
CC[C@H](C)[C@H](NS(=O)(=O)c1ccc(C)cc1)C(=O)N1CCC(C(=O)N[C@H](C(=O)O)C(C)C)CC1 | 5 | -8 | -1.0 | -2 | 1 | 4 | 8023
CC(=O)NCCC(=O)Nc1nc(-c2c[nH]c3ccccc23)cs1 | -13 | 0 | 2.2 | -2 | -14 | -9 | 5906
COc1ccc(C)cc1NC(=O)c1ccc(S(=O)(=O)N2CCOCC2)cc1 | 5 | 9 | 1.6 | 3 | 7 | -14 | 5809
Cc1ccc(Cl)cc1NC(=O)COC(=O)C1CCCCC1 | x | x | 1.1 | -4 | -3 | -3 | 4137
O=C1/C(=C/c2cccc([N+](=O)[O-])c2)Oc2cc(O)ccc21 | 10 | 10 | 7.3 | 5 | 3 | -6 | 3049
Cc1cc(C)c(S(=O)(=O)Nc2ccc(N(C)C)cc2)c(C)c1-n1cnnn1 | 2 | -1 | 2.1 | 3 | 1 | -28 | 6063

Two entries drawn at random from those above, as already listed:
SMILES | Mtb hypoxia inh | Mtb hypoxia inh growth | Sa RN4220 lethal | ugtP null kill | BJeLR viability | PrP UTR inh | Bead autofluor
Cc1ccsc1CN(C)CC(=O)Nc1cccc(S(=O)(=O)N(C)c2ccccc2)c1 | -3 | -3 | 2.4 | -9 | x | -10 | 6598
CCCOc1cccc(NC(=O)c2c(-c3ccccc3)noc2C)c1 | x | x | -1.2 | 1 | 19 | -14 | 3814

At a glance, some entries already given.
SMILES | Mtb hypoxia inh | Mtb hypoxia inh growth | Sa RN4220 lethal | ugtP null kill | BJeLR viability | PrP UTR inh | Bead autofluor
Cc1ccsc1CN(C)CC(=O)Nc1cccc(S(=O)(=O)N(C)c2ccccc2)c1 | -3 | -3 | 2.4 | -9 | x | -10 | 6598
COC(=O)Nc1ccc(OCC(=O)N2CCOCC2)cc1 | -3 | 3 | 4.0 | 1 | -8 | -8 | 2066

Molecules listed so far that have a nitro group on carbon:
SMILES | Mtb hypoxia inh | Mtb hypoxia inh growth | Sa RN4220 lethal | ugtP null kill | BJeLR viability | PrP UTR inh | Bead autofluor
COc1ccccc1-n1cc2c([N+](=O)[O-])cc([N+](=O)[O-])cc2n1 | 22 | 21 | -1.6 | -4 | 2 | -13 | 3691
O=C1/C(=C/c2cccc([N+](=O)[O-])c2)Oc2cc(O)ccc21 | 10 | 10 | 7.3 | 5 | 3 | -6 | 3049

Next structures
SMILES | Mtb hypoxia inh | Mtb hypoxia inh growth | Sa RN4220 lethal | ugtP null kill | BJeLR viability | PrP UTR inh | Bead autofluor
CC1(C)CC(=O)C(C(C2=C(O)CC(C)(C)CC2=O)c2ccc([N+](=O)[O-])cc2)C(=O)C1 (stereo unspecified) | -1 | -5 | 5.3 | 4 | 17 | -5 | 2474
NC(N)=N/N=C/c1ccc(N(c2ccccc2)c2ccccc2)cc1 | x | x | x | x | 7 | -15 | 3880
COc1cc2c(cc1OC)-c1cc(Nc3ccc4c(c3)OCCO4)nc(=O)n1CC2 | x | x | -2.2 | -10 | -7 | 6 | 4402
CCCOc1ccc(CN(C(=O)c2cccc(OC)c2)C2CCS(=O)(=O)C2)cc1 (stereo unspecified) | -5 | -6 | -1.7 | 0 | 0 | 4 | 5167
O=C(NC1CCCC1)C(=O)N(c1ccccc1F)C(C(=O)NCC1CCCO1)c1cccs1 (stereo unspecified) | 1 | -3 | -1.4 | 6 | -5 | -45 | 2554
CC1CC(C)CN(S(=O)(=O)CCNC(=O)c2ccc3c(c2)OCO3)C1 (stereo unspecified) | -3 | 5 | 2.0 | 6 | -1 | -18 | x
Cc1cc(/C=C2/NC(=O)N(Cc3ccccc3F)C2=O)c(C)n1C(C)C | -10 | -5 | 3.7 | 14 | -3 | -9 | 2576
CCC(CC)NC(=O)COC(=O)CCC(=O)c1cccs1 | -4 | 5 | 5.6 | 1 | -2 | -15 | 2067
Cc1cccc(/C(N)=N/OC(=O)c2ccoc2C)c1 | 1 | 11 | 3.0 | 2 | 19 | -129 | 6100
COc1ccc(C)cc1S(=O)(=O)N1CCCC(C(=O)NCc2ccccn2)C1 (stereo unspecified) | -15 | -7 | 1.8 | 3 | -10 | 0 | 5643
Cc1noc(C)c1COc1ccccc1C(=O)N(C)Cc1ccc(F)cc1 | 9 | 9 | 5.9 | 11 | x | -12 | 4914
CN(C)S(=O)(=O)c1ccc(NC(=O)CN2C(=O)NC(Cc3ccccc3)C2=O)cc1 (stereo unspecified) | 17 | 9 | 3.4 | 4 | x | -6 | 3042
COc1ccc(NS(=O)(=O)c2ccc(F)cc2F)cn1 | 15 | 0 | -0.9 | 5 | -5 | -28 | 4141
C/C(=N\NC(=O)c1cc(C)oc1C)c1ccc(N2CCOCC2)cc1 | x | x | x | x | -17 | -13 | 4287
CN(CCOc1ccc(Cl)cc1)C(=O)c1cccc(S(=O)(=O)N2CCN(c3ccc(F)cc3)CC2)c1 | -7 | 4 | 5.1 | -12 | x | -12 | 6864
COc1ccc(-c2nn(C)c3sc(C(=O)N4CCOCC4)cc23)cc1OC | x | x | -1.3 | 1 | -4 | -27 | 3673
CCN1CCN(S(=O)(=O)c2cnc(Cl)c(Br)c2)CC1 | 11 | 1 | 5.3 | 10 | 20 | -16 | 2526
O=C(COC(=O)C1CCCCC1)NCCc1ccccc1 | 12 | 3 | 2.1 | -1 | x | -23 | 2088
CC(=O)c1cccc(NC(=O)CCNS(=O)(=O)c2cccc3nsnc23)c1 | 14 | 18 | 1.0 | -2 | -15 | -4 | 3689
Cc1ccc2oc(=O)n(CCOc3ccccc3)c2c1 | 0 | 7 | -0.3 | -1 | 7 | -19 | 4037
COc1ccc(Cl)cc1S(=O)(=O)N1CCN=C1C | 4 | 16 | -4.4 | -5 | -1 | -19 | 5379
CCCCn1c(N)c(N(CCC(C)C)C(=O)C2CCCC2)c(=O)[nH]c1=O | -6 | 0 | -0.4 | 2 | x | 14 | 6353
O=C(COC(=O)c1cc[n+]([O-])cc1)NC(=O)c1ccc(OC(F)F)cc1 | 1 | 5 | -0.1 | -4 | x | -17 | 3447
CCOC(=O)N1CCC(n2c(SCC(=O)NCc3ccccc3)nc3ccccc3c2=O)CC1 | 7 | 6 | 6.6 | -10 | 1 | -13 | 5303
COc1ccc(C2/C=C\CN(S(=O)(=O)c3ccc4ccccc4c3)CC(=O)N2Cc2ccc(F)cc2)cc1 (stereo unspecified) | x | x | x | x | -5 | -2 | 4000
COC(=O)C1=C(c2ccc(-c3ccccc3)c(F)c2)CC2CCC1N2C(=O)NCc1cc(C)oc1C(F)(F)F (stereo unspecified) | 9 | 9 | -3.9 | 11 | x | x | x
CC(C(=O)NCc1ccccc1Cl)n1cc([N+](=O)[O-])cn1 (stereo unspecified) | 19 | 13 | 1.3 | 8 | -4 | -17 | 3781
O=C(O)CCC(=NNc1ccc([N+](=O)[O-])cc1)c1ccccc1 | 3 | -5 | 12 | -7 | x | x | x
CCCC(O)(CCC)C(=O)NNc1ccc(C)cc1 | 5 | 1 | 2.5 | 8 | 2 | -22 | 5634
CC1(c2ccc3noc(-c4ccc(F)cc4)c3c2)OCCO1 | -7 | 0 | -10 | -1 | -4 | -27 | 3267
CN(c1ccc(C(=O)Nc2ccc(CC#N)cc2)cc1)S(C)(=O)=O | 12 | 2 | 5.0 | 8 | -3 | -35 | 4407
O=C(NN=Cc1ccc([N+](=O)[O-])cc1)c1c[nH]c2ccccc12 | -5 | 0 | 2.0 | -3 | x | x | x
Cc1nc(Oc2cccc(Cl)c2)c2oc3ccccc3c2n1 | 4 | 11 | 18 | -16 | -11 | 2 | 4368
Cc1oc(-c2ccccc2F)nc1CS(=O)(=O)CC(=O)NCCN(C)C1CCCCC1 | 3 | 13 | -14 | -1 | 5 | -11 | 4331
Cc1cc(=O)[nH]c(NCc2ccccc2)n1 | 3 | -1 | 1.7 | 2 | -4 | -25 | 3823
O=C(CSc1nc2c([nH]c3ccccc32)c(=O)n1-c1ccccc1)NCC1CCCO1 (stereo unspecified) | 12 | -8 | 1.4 | 4 | -1 | -15 | 5931
COc1ccccc1N1C(=O)C(=O)N(C)C1=O | 18 | -1 | 1.5 | 10 | 2 | -21 | 4561
CC(C)COc1ccc(Cc2cnc(N)nc2N)cc1 | 6 | 4 | 16 | 97* | 7 | -12 | 3111
C=CCn1c(SCC(N)=O)nc(C)cc1=O | x | x | -3.1 | -5 | 0 | -28 | 5754
COc1ccc(Oc2ncccc2NC(=O)c2cccc(C)c2C)cc1 | 18 | 0 | 3.4 | 9 | 0 | -13 | 4336

Compound profiles (already shown). Order of screens: Mtb hypoxia inh | Mtb hypoxia inh growth | Sa RN4220 lethal | ugtP null kill | BJeLR viability | PrP UTR inh | Bead autofluor
CC(C(=O)NCc1ccccc1Cl)n1cc([N+](=O)[O-])cn1 (stereo unspecified) is listed as 19 | 13 | 1.3 | 8 | -4 | -17 | 3781
CC(C)COc1ccc(Cc2cnc(N)nc2N)cc1 is listed as 6 | 4 | 16 | 97* | 7 | -12 | 3111

New compounds follow:
SMILES | Mtb hypoxia inh | Mtb hypoxia inh growth | Sa RN4220 lethal | ugtP null kill | BJeLR viability | PrP UTR inh | Bead autofluor
CCCN(C(=O)c1ccccc1Cc1ccccc1)C1CCS(=O)(=O)C1 (stereo unspecified) | -5 | 7 | 3.4 | 1 | -4 | -8 | 6098
O=C(Nc1nnc(Cc2c[nH]c3ccccc23)s1)c1ccc(Cl)cc1Cl | 1 | 1 | 15 | -31 | -7 | -20 | 2661
N#CCCN(Cc1cccnc1)S(=O)(=O)c1ccc(S(=O)(=O)NC2CCCCC2)cc1 | 4 | -7 | 10 | 11 | 6 | -20 | 8917
COc1ccc(S(=O)(=O)N2CCC(C(=O)N[C@@H](C)C(=O)NCc3ccccc3OC)CC2)cc1 | 14 | 1 | 2.0 | 5 | 4 | -14 | 6189
COc1ccc(CCNc2nc(-c3cccc(NC(C)=O)c3)cs2)cc1OC | 1 | 2 | 1.3 | 8 | 0 | -7 | 4612
